gsp antagonist – antagonists of gsp mutant (McCune-Albright syndrome). Potency, µM (doses to about 76.9 µM), for inactives: at the highest dose activity change, negative = inhibition, most hits filed as inhibitors. 0.4% of 340,000 active. gsp-mutant cells, cAMP HTRF, 30 min; control for the full effect not named in the record; active = falling curve of any shape with a large fitted effect; inconclusive = falling curve, mostly with a smaller effect; inactive = flat or rising curve; cell line not stated here;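 note: intracellular cAMP measured with PDE inhibitor Ro 20-1724 present during compound exposure; potency is the fitted concentration of half-maximal effect; % is set by controls: 0 for no effect and ±100 for the full control effect; nearly all actives have a fitted effect of over 65% in size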
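Measurement of cellular cAMP by homogeneous time-resolved fluorescence following a 30 min compound exposure at 37C. The PDE inhibitor […] was present throughout; the assay buffer was DPBS with 0.05% BSA and 0.005% Tween 20.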
gsp agonist – gsp mutant agonism; 0.13% of 340,000 active; gsp mutant cells, cAMP HTRF, 30 min; control for the full effect not named in the record; Potency, µM (highest dose often 76.9 µM), for inactives: at the top dose activation (cAMP increase), hits mostly activators; active = well fitted activation curve with a large enough effect; inconclusive = small, poorly fitted or top-dose-only effect, or another doubt; inactive = no such curve, though single readings can be large or run the other way; cell line not stated here;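 note: phosphodiesterase inhibitor Ro 20-1724 added with compounds to block cAMP breakdown; potency is the fitted concentration of half-maximal effect; nearly all actives have a fitted effect of over 60% in size; about a fifth of the inactives were tested at one dose only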
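Cells stably selected in G418 were plated at 2000/well, grown 16-24 hr, then given compounds in DMSO with the PDE inhibitor […] (300 uM solution added) for 30 min at 37C; cAMP was read by HTRF.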
Menin-MLL FL inh – displaces fluorescein MLL peptide from human menin; Fluorescence polarization, fluorescein-MLL peptide displacement from menin; FP activity change, % at 61.4 µM; AID 1766; 290,000 tested, under 10 active; inconclusive = falling polarisation curve, or a change in total fluorescence; inactive = total fluorescence flat and polarisation flat or rising; no compound was filed as active; the % refers to the polarisation; negative = inhibition;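 note: % of control where 0% means no effect; inhibitors lower the polarisation; unlabelled MLL peptide was the positive control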
Sfp PPTase inh – Sfp phosphopantetheinyl transferase inhibition; Q9F4F7; Biochemical Sfp PPTase activity, qHTS; Potency, µM, without a hit: max response, negative = inhibition, usual class: inhibitors; 3.5% of 310,000 active; AID 1490; active = well fitted inhibition curve with a large enough effect; inconclusive = small, poorly fitted or top-dose-only effect, or another doubt; inactive = no such curve, though single readings can be large or run the other way;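 note: the enzyme is Sfp with the accession as filed and its product quenches rhodamine fluorescence; potency is the fitted concentration of half-maximal effect; 0% = enzyme reaction without inhibitor and -100% = no enzyme wells; top concentration of the series not given in the record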
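Fluorescence-quenching assay: 15 nM Sfp-PPTase preincubated 15 min at room temperature with compound, then 5 uM rhodamine-CoA and 12.5 uM BHQ-2-labelled YbbR peptide added. Fluorescence (ex 525/em 598 nm) read at start and after 30 min; difference gives rate.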
ClpP mod – qHTS Assay for Activators of ClpP; ATP-dependent Clp protease proteolytic subunit (Bacillus subtilis (strain 168)), P80244; purified B. subtilis ClpP, FRET peptide cleavage, 20 min; Potency, µM (highest dose often 57.5 µM), for the others: at the top dose activity change, negative = active; 1.9% of 340,000 active; AID 651965, 2013; active = well fitted falling curve with a large enough effect; inconclusive = small, poorly fitted or top-dose-only effect; inactive = no such curve, though single readings can be large or run the other way; note: potency is the fitted concentration of half-maximal effect; the source files actives as falling curves though it sought activators and does not explain the sign; nearly all actives have a fitted effect of over 65% in size; many hits overshoot -100%
Target sequence (P80244 whole entry, looked up): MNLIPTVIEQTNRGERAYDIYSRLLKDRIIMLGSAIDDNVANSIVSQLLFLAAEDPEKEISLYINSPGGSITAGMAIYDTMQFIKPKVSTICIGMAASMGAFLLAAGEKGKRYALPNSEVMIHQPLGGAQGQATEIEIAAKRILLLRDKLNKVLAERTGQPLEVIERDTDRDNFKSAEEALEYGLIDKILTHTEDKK
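ClpP 10 microg/mL final, pH 8 Tris/KCl buffer with BSA, glycerol, Tween-20; compound pinned in; FRET-FV substrate; RT 20 min; Ex320/Em430; ΔFRET vs ADEP 5.8 microM, DMSO, no enzyme.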
TRPV1 potentiator – human TRPV1 potentiation; Q8NER1; 0.02% of 320,000 active; potentiation, % at 8.33 µM; TRPV1-expressing cells, Fluo-8 calcium influx, capsaicin EC20 potentiation; host cell line not named in the record; control for the full effect not named in the record; AID 540277; active means potentiation above 80%; inconclusive means 30% to 80%; inactive means below 30%; note: 0% is about no effect
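Cells expressing TRPV1 were dye-loaded with Fluo-8 and read kinetically: 10 s baseline, 3 min after compound (agonist portion), then 2 min after EC20 capsaicin (allosteric enhancer portion). Calcium-bound dye fluorescence at 480/520 nm.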
TRPML1 inh – inhibitors of human TRPML1 channel; Q9GZU1; 0.02% of 390,000 active; TRPML1-inducible cells, Ca2+ dye fluorescence, FDSS; hits give low values; inhibition of EC80 agonist-evoked calcium signal; AID 624415; activity change, negative = inhibition, % (test concentration not listed); in the data active means activity change below about -50%; inconclusive means about -30% to -50%; inactive means above about -30%;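 note: stimulus is agonist 54-4 at its EC80 concentration; % is set by controls: 0 for no effect and ±100 for the full control effect; compound concentration not given in the record; the text of the record puts the active cut at -80%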
Target sequence (Q9GZU1 whole entry, looked up): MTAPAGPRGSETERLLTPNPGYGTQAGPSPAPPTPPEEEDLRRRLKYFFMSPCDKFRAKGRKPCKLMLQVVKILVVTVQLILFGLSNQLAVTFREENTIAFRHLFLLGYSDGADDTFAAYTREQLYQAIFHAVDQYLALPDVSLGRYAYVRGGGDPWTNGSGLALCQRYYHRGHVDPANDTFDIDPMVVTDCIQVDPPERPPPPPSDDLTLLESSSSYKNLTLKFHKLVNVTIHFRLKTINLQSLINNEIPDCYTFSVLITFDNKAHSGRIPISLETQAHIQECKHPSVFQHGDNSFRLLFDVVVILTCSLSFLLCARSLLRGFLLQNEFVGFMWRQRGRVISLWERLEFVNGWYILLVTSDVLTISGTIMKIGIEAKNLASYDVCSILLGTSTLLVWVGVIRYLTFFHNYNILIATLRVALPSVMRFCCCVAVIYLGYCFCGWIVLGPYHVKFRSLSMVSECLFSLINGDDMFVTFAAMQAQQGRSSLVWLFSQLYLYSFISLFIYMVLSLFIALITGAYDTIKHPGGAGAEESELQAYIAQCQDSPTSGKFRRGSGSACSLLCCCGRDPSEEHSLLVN
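Calcium fluorescence in TRPML1-DL cells induced overnight with Tet: a 110 s read after compound pin addition, then a 110 s antagonist read after challenge with 54-4 at 4 uM final (EC80).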
* marks the source's active call; other numbers are inactive results; ? = inconclusive; / = no result given; & = joins results of further samples; [ ] = dose if it differs, or a comment.

SMILES	gsp antagonist	gsp agonist	Menin-MLL FL inh	Sfp PPTase inh	ClpP mod	TRPV1 potentiator	TRPML1 inh
N#Cc1ccc(CSc2ccccn2)c(Cl)c1	6%	11%	-3.6	21%	/	-19	50
O=C(COc1cccc(-n2cnnn2)c1)NC1CCCCC1	7%	1%	1.5	14%	-2.8%	0	-1
COc1cccc2oc(CCc3ccccc3)cc(=O)c12	-8%	-46%[inhibitor]	/	/	4.1%	/	-1
c1ccc2c(-n3cccn3)cccc2c1	-2%	-33%[inhibitor]	5.0	2%	-1.3%	10	2
Cc1oc(-c2ccc(Cl)cc2)nc1CN1CCC(C(=O)NCc2cccnc2)CC1	-11%	?	0.9	?	-6.4%	-5	2
COc1ccc(CC(=O)OCC(=O)Nc2c(C)n(C)n(-c3ccccc3)c2=O)cc1	8%	-6%	3.7	-3%	-1.1%	-1	46
COc1ccccc1-c1nnc(NC(=O)CCS(=O)(=O)c2ccccc2)o1	-1%	-1%	/	?	-15%	0	10
Cc1ccccc1-n1nc2c(c1NC(=O)C1CCCC1)CS(=O)(=O)C2	-6%	4%	-1.2	4%	1.5%	-14	0
O=C(CSc1nc2c(sc3ccccc32)c(=O)n1Cc1ccco1)NCC1CCCO1 (centres undefined)	-34%	0%	6.5	-18%	-15%	4	-8
Cc1cc2cc(CNC(=O)CC(C)C)ccc2n1C	-5%	?	?	9%	-15%	-9	-2
CCn1c(SCC(=O)NC2CCCCC2)nnc1-c1cccnc1	0%	-4%	-2.1	13%	-2.0%	2	-16
CCNC(=O)CN(c1ccc(Cl)cc1)S(=O)(=O)c1ccccc1	17%	-2%	1.1	15%	2.1%	-12	5
COc1ccc(CN(C)C(=O)c2cccc(C(=O)N(C)Cc3ccc(OC)cc3)c2)cc1	-31%	-5%	-9.4	1%	-0.5%	?	4
Cn1ccc(C(=O)Oc2ccc(C(=O)Nc3ccc(F)cc3F)cc2)n1	8%	-15%[15.4 µM]	-0.3	-7%	1.0%	-13	-4
NC(=O)CSc1nnc(-c2ccco2)n1-c1ccc(F)cc1	/	-77%[inhibitor]	/	/	-3.2%	/	-14
COc1ccc(NC(=O)c2ccc(OC(F)F)cc2)cc1Cl	-6%	-21%	7.9	5%	25µM*	-11	-13
CC(=O)Nc1ccc(NC(=O)c2ccccc2N(C)S(C)(=O)=O)cc1	2%	?	1.1	19%	0.1%	7	7
Cc1noc(C)c1S(=O)(=O)N(C)C[C@H]1Oc2ccc(NC(=O)Cn3cnnn3)cc2C(=O)N([C@H](C)CO)C[C@@H]1C	16%	/	/	/	-1.3%	/	-7
C=CCn1c(SCc2csc(C)n2)nc2sc3c(c2c1=O)CCCCC3	?	-16%	1.5	-10%	-5.2%	-4	2
COc1cc(NC(=O)C2=COCCO2)c(OC)cc1Cl	-16%	7%	/	/	?	?	-17
Cc1nc(N/N=C/c2cccc([N+](=O)[O-])c2)cc(N2CCCCC2)n1	/	-32%	/	/	-0.5%	/	2
Cc1nc(-c2ccccc2OC(F)(F)F)[nH]c(=O)c1Cl	-8%	10%[15.4 µM]	-2.0	2%	-1.0%	30	-14
O=C(c1ccccc1)N(CCN1CCOCC1)C1(C(=O)Nc2ccccc2)CCCCC1	-5%	0%	5.5	16%	0.2%	3	-3
O=C(NCc1ccccc1)c1cccc(NC(=O)c2ccco2)c1	-3%	-1%	5.2	-9%	-1.7%	/	-16
O=C(NCC(F)(F)F)c1ccc(S(=O)(=O)N2CCN(C(=O)C3CCCO3)CC2)cc1 (centres undefined)	-2%	-32%[inhibitor]	/	/	0.9%	-10	5
CSC(=S)N/N=C(\C)c1ccc(Br)cc1	/	6%[15.4 µM]	-9.6	-26%	/	-9	5
CN(C(=O)CC(NC(=O)c1ccccc1)(c1ccccc1)c1ccccc1)c1ccccc1	-24%	-53%[inhibitor]	-0.4	14%	0.4%	-27	3
COc1ccccc1CCNC(=O)C(=O)NCC1OCCN1S(=O)(=O)c1ccc(F)cc1 (centres undefined)	3%	-2%	-2.2	5%	0.9%	-17	-7
CC(=O)OCCNc1cc(SCc2ccco2)c2nonc2c1[N+](=O)[O-]	0%	6%	6.0	45µM*	-2.2%	-7	-18
FC(F)(F)c1nnc2c(Sc3ccccc3)nc3ccccc3n12	-23%	30%	1.0	8%	-23%	-5	-1
COc1ccccc1Oc1c(C)oc2c(CN3CCOCC3)c(O)ccc2c1=O	10%	3%[15.4 µM]	0.8	12%	/	-4	4
CCOC(=O)c1sc(NC(=O)c2ccc(S(=O)(=O)N(C)C)cc2)cc1C	?	20%	0.6	-1%	245%	10	11
Cc1cccc(C)c1-n1c(C)cc(/C=C2\NC(=O)NC2=O)c1C	-5%	-32%[inhibitor]	4.7	13%	-3.8%	-19	18
Cc1nc2ccc(NS(=O)(=O)c3ccc(Br)cc3)cc2s1	-10%	?	/	/	-0.2%	?	7
Cc1nn(C)c(C(=O)N2CCc3ccccc32)c1Cl	0%	?	1.0	-3%	1.5%	?	22
CC(C(=O)N(C)c1ccccc1)N1CCN(C(=O)c2ccccc2)CC1 (centres undefined)	-3%	-1%[15.4 µM]	-5.6	4%	1.6%	10	-6
CC(C)NC(=O)C(=O)NCCN1CCN(S(=O)(=O)c2ccc(Cl)cc2)CC1	-1%	3%	0.5	17%	-0.9%	3	5
C=CCN([C@@H](CC(C)C)C(=O)OC)S(=O)(=O)N(CC=C)[C@@H](CC(C)C)C(=O)OC	-5%	/	/	/	0.6%&1.5%	-7	1
CCCc1cc(=O)oc2cc(OCC(=O)N3CCc4ccccc43)ccc12	2%	-22%	1.7	9%	27%	-6	-9
COC(=O)c1cc(Br)c(=O)n(Cc2ccncc2)c1	5%	28%	0.6	14%	1.0%	2	3
COCC(=O)N/N=C/c1ccc(Sc2nc3ccccc3s2)o1	-12%	2%	2.8	-3%	?	-4	-18
COc1ccc(C2N(C(=O)c3ccccc3)CCN2C(=O)c2ccc(C)cc2)cc1 (centres undefined)	-2%	-42%[inhibitor]	1.2	5%	-4.6%	9	-8
Nc1ccc(-c2ccc(N)c(C(=O)O)c2)cc1C(=O)O	-16%	26%	3.4	-7%	-9.5%	9	1
Cc1cc(C(=O)N/N=C/c2ccc(O)c([N+](=O)[O-])c2)n[nH]1	-23%	?	1.5	7%	1.3%	-3	13
O=C1OC(c2ccc(F)cc2)=C/C1=C\c1ccc(O)cc1	-5%	12%	-4.2	-17%	-1.7%	-9	/
O=C(NCCCO)C(=O)NCCc1ccc(Cl)cc1	9%	-5%[15.4 µM]	0.9	26%	0.1%	-8	27
O=C(NCc1ccco1)c1ccccc1-c1ccc(C(F)(F)F)cc1	-7%	-30%[inhibitor]	4.1	17%	0.6%	-5	-2
COc1ccc(CN2CCS(=O)(=O)CC2)cc1OC	11%	-4%	2.5	19%	1.4%	-11	1
Cc1c(NC(=O)C(C)Sc2ccccc2)c(=O)n(-c2ccccc2)n1C (centres undefined)	3%	36%	-0.2	5%	-0.2%	1	-2
Cc1ccc(NC(=O)COc2ccccc2C(=O)NCc2ccccc2)cc1	?	-30%[inhibitor]	/	/	-14%	5	-20

Next results follow.
SMILES	gsp antagonist	gsp agonist	Menin-MLL FL inh	Sfp PPTase inh	ClpP mod	TRPV1 potentiator	TRPML1 inh
COc1ccc(C(=O)NC(C)c2ccc(-n3ccnc3)cc2)cc1[N+](=O)[O-] (centres undefined)	-11%	-33%[inhibitor]	-2.6	7%	/	-7	-4
CCOCC(=O)Nc1cc(C(=O)Nc2cccc(C)c2C)ccc1Cl	9%	10%	0.9	5%	-0.7%	-7	-1
COc1ccc(C(CCN2CCCCC2)c2c(O)cc(OC)cc2OC)cc1 (centres undefined)	6%	/	1.6&0.4	-10%&15%	-0.4%	-5	-10&8
CCC(=O)n1nc(-c2ccccc2)nc1NCc1ccccc1	2%	1%	0.5	-4%	38%	1	-8
C[C@@]12C(=O)N(c3ccc(Br)cc3)C(=O)N1[C@@H]1c3ccccc3OC[C@@H]1[C@H]2c1ccccc1	-1%	/	/	/	1.2%	/	60
O=C(O)C1CC=CCC1C(=O)Nc1ccc(Oc2ccc(Cl)cc2)cc1 (centres undefined)	-7%	-6%	2.8	?	0.9%	-18	0
Cc1ccc(NC(=O)C(C)N2C(=O)C3CC=C(Cl)CC3C2=O)cc1 (centres undefined)	5%	5%	0.3	-9%	-12%	-4	-4
CN1CCN(C(=O)Cn2c(C(F)(F)F)nc3ccccc32)CC1	5%	25%[15.4 µM]	0.8	12%	-2.5%	5	20
O=C(CNC(=O)c1ccc([N+](=O)[O-])cc1)N/N=C/c1c[nH]c2ccccc12	-3%	9%	1.1	4%	0.6%	0	-14
Cc1cccc(C)c1OCC(=O)Nc1ccc(N2CCOCC2)cc1	7%	-10%	0.4	13%	-0.8%	9	-16
CCN(CC)S(=O)(=O)c1cccc(C(=O)Nc2cc(C)nn2-c2ccccc2)c1	-25%	19%[15.4 µM]	3.2	16%	-0.7%	-3	0
Cc1ccc(SCC(=O)OCc2csc(CC(=O)Nc3ccccc3C)n2)cc1C	1%	-7%	/	/	-3.5%	2	-7
Cc1ccc2[nH]c(=O)c(C3=NN(C(=O)CCC(=O)O)C(c4cccs4)C3)c(-c3ccccc3)c2c1 (centres undefined)	-1%	7%	-0.3	6%	-16%	1	4
CCCCNC(=O)c1cc2c(C)cc(C)cc2[nH]1	-3%	10%[15.4 µM]	-0.6	5%	/	-18	8
CCOc1ccccc1-c1ccc(C(=O)NCc2ccccc2)o1	?	-4%	-0.6	3%	4.5%	-26	-15
O=C(Nc1ccccc1)N1C2CCC1CC(O)(c1cccnc1)C2 (centres undefined)	21%	-7%	3.7	-6%	0.5%	0	-1
COC(=O)c1nnn(-c2ccccc2)c1N	11%	-13%	4.5	18%	0.8%	6	-1
Cc1ccc(C(=O)C(C)OC(=O)CCS(=O)(=O)c2ccc(C)cc2)cc1 (centres undefined)	3%	5%	/	/	-3.9%	-6	1

Screening results: PubChem BioAssay, National Center for Advancing Translational Sciences (NCATS)
